# High-throughput results from PubChem.
# Marburg entry inh: Marburg virus entry inhibition. Marburg virus pseudotyped entry inhibition, cell reporter; control for the full effect not named in the record; about a third of the inactives were read at about 46 µM. Potency, µM (highest dose often 37.8 µM), inactives show top-dose activity change, negative = inhibition, most hits filed as inhibitors. 300,000 tested, 1.8% active; active = well fitted inhibition curve with a large enough effect; inconclusive = small, poorly fitted or top-dose-only effect, or effect the other way; inactive = flat fitted curve, though single readings scatter; tested in HEK293 cells; about a fifth of its hits are not listed in these tables; note: % is set by controls: 0 for no effect and ±100 for the full control effect; luciferase read-out
# SARS PLpro yeast: inhibitors of SARS-CoV papain-like protease in yeast; S. cerevisiae expressing SARS-CoV PLpro, growth rescue; control for the full effect not named in the record; Potency, µM (titrated, usually from 32.9 µM), inactives show at the highest dose activity, positive = growth rescue; 330,000 tested, 0.19% active; active means well fitted rising curve with a large enough effect; inconclusive means small, poorly fitted or top-dose-only effect; inactive means no such curve, though single readings can be large or run the other way; note: 0% is about no effect; nearly all actives have a fitted effect of over 55% in size; growth read by luminescence after 48 h
# Lassa entry inh: blocks Lassa virus binding to or entry into cells | Lassa virus pseudotype entry inhibition, cell reporter; control for the full effect not named in the record | AID 540256 | 300,000 tested, 1.2% active | Potency, µM (titrated, usually from 37.9 µM), without a hit: top-dose activity change, negative = inhibition, most hits filed as inhibitors; active means well fitted inhibition curve with a large enough effect; inconclusive means small, poorly fitted or top-dose-only effect, or effect the other way; inactive means flat fitted curve, though single readings scatter; tested in HEK293 cells; note: % is set by controls: 0 for no effect and ±100 for the full control effect; nearly all actives have a fitted effect of over 50% in size; luciferase read-out
# Cruzain inh noDet: inhibitors of Trypanosoma cruzi cruzain without detergent; P25779; purified cruzain, Z-FR-AMC fluorescence, no detergent; Potency, µM, for the others: max response, negative = inhibition, most hits filed as inhibitors; 200,000 tested, 2.3% active;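 note: plate controls were enzyme without inhibitor for no effect and buffer without enzyme for full effect; nearly all actives have a fitted effect of over 40% in size; top concentration of the series not given in the record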
# Target sequence (P25779 123-467 limits assumed): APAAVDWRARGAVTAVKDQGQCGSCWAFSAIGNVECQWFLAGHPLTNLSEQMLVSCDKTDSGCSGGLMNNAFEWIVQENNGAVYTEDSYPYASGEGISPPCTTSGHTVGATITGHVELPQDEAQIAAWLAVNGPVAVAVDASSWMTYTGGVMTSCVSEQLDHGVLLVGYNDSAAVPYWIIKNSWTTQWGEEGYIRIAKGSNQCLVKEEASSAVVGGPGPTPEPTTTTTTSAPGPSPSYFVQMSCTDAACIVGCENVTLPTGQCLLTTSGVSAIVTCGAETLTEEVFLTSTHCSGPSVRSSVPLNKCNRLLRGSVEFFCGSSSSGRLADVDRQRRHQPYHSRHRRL
#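 Detergent-free condition (0.00005% Triton X-100) in acetate buffer pH 5.5 with DTT. 1.5 nM enzyme and compound were pre-mixed 15 min, then 2 uM Z-FR-AMC substrate added; reaction progress from fluorescence change between first and third reads (60 s).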
# StopGo reporter: lowers the luciferase signal of an FMDV 2A StopGo reporter; human cells with a luciferase reporter of 2A StopGo recoding; control for the full effect not named in the record; Potency, µM (titrated, usually from 57.9 µM), for inactives: at the top dose signal change, negative = less light; 410,000 tested, 1.2% active; AID 1159524; active = well fitted falling curve with a large enough effect; inconclusive = small, poorly fitted or top-dose-only effect; inactive = no such curve, though single readings can be large or run the other way; tested in HEK293T cells; note: % is set by controls: 0 for no effect and ±100 for the full control effect; nearly all actives have a fitted effect of over 45% in size; luciferase light after 4 h
# Cruzain inh Det: cruzain (T. cruzi) inhibition with detergent. purified cruzain, Z-FR-AMC fluorescence, 0.01% Triton. Potency, µM, for the others: max response, negative = inhibition, most hits filed as inhibitors. 200,000 tested, 0.43% active;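 note: plate controls were neutral wells for no effect and buffer without enzyme for full effect; nearly all actives have a fitted effect of over 40% in size; top concentration of the series not given in the record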
#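 Cruzain (1.5 nM) preincubated 15 min at RT with compound in 100 mM sodium acetate pH 5.5, 5 mM DTT, 0.01% Triton X-100. Reaction started with 2 uM Z-FR-AMC; AMC fluorescence (ex 360/em 450 nm) change over 60 s gave rate.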
# NS1 function inh: influenza NS1 inhibition | 270,000 tested, 0.4% active | S. cerevisiae slowed by influenza A NS1, growth recovery by OD600 | Potency, µM (highest dose often 46.1 µM), without a hit: at the highest dose activity, positive = more growth; active means well fitted rising curve with a large enough effect; inconclusive means small, poorly fitted or top-dose-only effect; inactive means no such curve, though single readings can be large or run the other way; note: nearly all actives have a fitted effect of over 50% in size
#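 A cell-based growth assay was used: compounds that relieve NS1-induced slow growth of budding yeast raise OD600. Assay medium was yeast nitrogen base with ammonium sulphate and -URA supplement, pH 6.0, with 2% galactose.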
# RE007 growth inh: less growth of the S. pombe RE007 Vpr strain; S. pombe RE007 Vpr strain, BacTiter-Glo ATP luminescence, 24 h; control for the full effect not named in the record; Potency, µM (top dose mostly 92.2 µM), for inactives: at the top dose activity change, negative = less growth; 360,000 tested, 0.21% active; active = well fitted falling curve with a large enough effect; inconclusive = small, poorly fitted or top-dose-only effect; inactive = no such curve, though single readings can be large or run the other way;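 note: % is set by controls: 0 for no effect and ±100 for the full control effect; nearly all actives have a fitted effect of over 50% in size; the assay follows cell death caused by Vpr and the record does not say whether a fall means rescue or toxicity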
#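 Fission yeast strain RE007, carrying one chromosomally integrated HIV-1 vpr copy, was seeded at OD 0.01 in PMG+AL medium with 23 nL pinned compound. After 24 h at 30 °C and 99% humidity, viability was read by BacTiter-Glo luminescence.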
# * marks the source's active call; other numbers are inactive results; ? = inconclusive; · = not tested or not shown; & = joins results of further samples; [ ] = dose if it differs, or a comment. Unless noted, calls come from the whole dose curve; as a rule, active = well fitted curve in the direction sought with a large enough effect; inconclusive = small, poorly fitted or top-dose-only effect, or another doubt; inactive = no such curve, though single readings can be large; an effect the other way counts as inactive or inconclusive. Potency is the fitted concentration of half-maximal effect.
SMILES,Marburg entry inh,SARS PLpro yeast,Lassa entry inh,Cruzain inh noDet,StopGo reporter,Cruzain inh Det,NS1 function inh,RE007 growth inh
CC(C)c1nc2oc3c(NCC4CCCO4)ncnc3c2c2c1COC(C)(C)C2 (centres undefined),4%,-5%,5%,?,-23%,-1.2%,-5%,-20%
CCOC(=O)C1=C(COC(=O)COc2ccc(Br)cc2)NC(=O)NC1C (centres undefined),15%,2%,-9%,·,-12%,·,·,1%
COC(=O)c1ccc(CN2CCN(Cc3ccccc3)CC2)cc1,?,1%,-1%,-13%,-11%,-2.3%,-1%,3%
Cn1cccc1Cc1nnc(SCC(=O)N2CCc3ccccc32)n1-c1ccc(F)cc1,-15%&-15%,-12%,-14%,?,-21%,-4.2%,-10%,-5%
CCSc1nc2ccccc2n1C(=O)/C=C\c1ccc(OC)c(OC)c1,13µM*,2%,?,?,13µM*,1.9%,-7%,0%
Cc1cc(C(=O)N2CCC3(CC2)OCCO3)no1,?,7%,2%[46.1 µM],·,-4%,·,6%,-7%
CN(C)S(=O)(=O)c1ccc(NC(=O)CN2C(=O)NC3(CCCC3)C2=O)cc1,10%[46.1 µM],7%,-8%[46.1 µM],·,6%,·,1%,-15%
Cc1cnc(NC(=O)CN2CCCCC2)s1,0%,7%,9%,·,9%,·,5%,-9%
CCOC(=O)C1=C(c2ccccc2)Nc2ncnn2C1c1ccc(O)cc1 (centres undefined),6%,0%,?,·,-4%,·,1%,0%
CC1(C)Cc2c(sc3ncn4c(=S)[nH]nc4c23)CO1,13%[46.1 µM],5%,1%,·,-17%,·,·,2%
C=CCNC(=O)c1c[nH]c2ccc(S(=O)(=O)N(C)c3ccc(OCC)cc3)cc2c1=O,·,-2%,·,·,0%,·,-1%,-7%
Nc1c(C(=O)c2ccc(Cl)cc2)sc2nsc(SCCN3CCOCC3)c12,1%[46.1 µM],-1%,2%,·,?,·,-3%,18%
Cc1cccc(NC(=O)c2ccc(-n3c(C)nnc3C)cc2)c1,·,·,-14%[46.1 µM],3%,-14%,0.5%,·,·
CC(OC(=O)c1ccco1)C(=O)Nc1nc(-c2ccccc2)cs1 (centres undefined),11µM*,-13%,10µM*,·,-10%,·,·,-3%
CCCCn1c(=O)[nH]c(=O)c2c1nc(-c1ccc(-c3ccc(F)cc3)o1)n2C,18%[46.1 µM],-1%,13%,·,-13%,·,4%,16%
Cc1ccc(C(=O)Oc2ccccc2N2C(=O)C3CCCCC3C2=O)cc1 (centres undefined),7%,7%,7%,-9%,-5%,-1.6%,-3%,30%
COc1ccc(OC)c(C(=O)CC2OC(=O)c3ccccc32)c1 (centres undefined),?,4%,-4%,-11%,14µM*,1.8%,-14%,-3%
COc1cc(CSc2nnnn2-c2ccc(C)cc2)cc(OC)c1OC,?,-24%,3.7µM*,3%,·,-4.0%,-39%,2%
O=C(O)/C(=C\c1ccco1)NC(=O)c1cccc2ccccc12,0%,3%,?,4%,20%,-3.3%,12%,-5%
COc1ccc(S(=O)(=O)Nc2ccccc2OC)cc1NC(=O)c1cc2ccccc2oc1=O,?,22%,?,?,7%,-3.8%,18%,1%
COc1cccc(CNC(=O)CC2Sc3ccccc3NC2=O)c1 (centres undefined),-4%,1%,-13%,·,-7%,·,·,47%
CCc1ccc(CN2CCC(CO)(CC3CCCCO3)CC2)o1 (centres undefined),17%[46.1 µM],1%,22%[46.1 µM],·,-7%,·,3%,2%
CC1CCN(C(=S)c2cn(Cc3ccccc3F)c3ccccc23)CC1,?,10%,?,?,45%[activator],-3.0%,-10%,19%
COc1ccc(CN(Cc2ccccn2)S(=O)(=O)c2ccc(-n3cnnn3)cc2)cc1,4%,3%,-15%,-5%,?,0.4%,-14%,13%
COc1ccccc1CN1C[C@@H]2C[C@@H](c3ccc4nsnc4c3)N3CCC[C@@]23C1=O,-1%[46.1 µM],1%,0%[46.1 µM],·,46%[activator],·,16%,11%

# Next part:
SMILES,Marburg entry inh,SARS PLpro yeast,Lassa entry inh,Cruzain inh noDet,StopGo reporter,Cruzain inh Det,NS1 function inh,RE007 growth inh
Cc1ccc([N+](=O)[O-])cc1NC(=S)NC(=O)c1c(Cl)cnn1C,·,-5%,·,·,-14%,·,8%,-4%
O=C(CCn1c2c(c3ccccc31)CCCC2)NNC(=O)c1ccc([N+](=O)[O-])cc1,-4%,-7%,-12%,?,-21%,-4.8%,7%,6%
COc1ccc(Nc2nc(N)nc(CSc3nc4cc(OC)ccc4s3)n2)cc1,-22%[46.1 µM],·,-20%[46.1 µM],?,?,-5.3%,·,·
CC1(C)C(=O)OC(C(=O)c2ccccc2)C2(CCCCC2)C1=O (centres undefined),3%,14%,6%,1%,-15%,-2.6%,-3%,13%
O=C1/C(=C/c2ccc(Cl)cc2)SC(=S)N1CCC(=O)N1CCCCC1CCO (centres undefined),·,0%,·,·,-19%,·,-1%,-13%
COc1cc(C2C(C#N)=C(N)Oc3cc(N(C)C)ccc32)cc2c1OCO2 (centres undefined),?,5%,0.52µM*,?,-10%,-11%,0%,1%
O=C(Nc1cc(F)ccc1F)C1CCCN1S(=O)(=O)c1cccc2nsnc12 (centres undefined),-16%[46.1 µM],-1%,7%[46.1 µM],·,-10%,·,-4%,3%
O=C(Nc1cccnc1)c1c(F)c(F)c(F)c(F)c1F,8%,-2%,7%,-17%,-20%,2.7%,-1%,-7%
CC(=O)c1ccc(Oc2cc(C)nc(N3CCOCC3)n2)cc1,1%,6%,1%,-5%,11%,0.8%,-3%,-10%
COc1cc(/C=C(\NC(=O)c2cc(OC)c(OC)c(OC)c2)C(=O)NC(C(=O)O)c2ccccc2)cc(OC)c1OC (centres undefined),4%,5%,?,·,-16%,·,28%,-17%
CN1CCN(C(=O)C2=C[C@@H](c3csc4ccccc34)C[C@@H](OCCCCO)O2)CC1,·,0%,·,·,-9%,·,-2%,1%
Cc1ccc(S(=O)(=O)c2cc3ccccc3oc2=Nc2ccc3c(c2)OCO3)cc1,2%,2%,18%,?,20%,4.2%,-4%,-5%
CN(C)/C=C/C(=O)c1ccc(Cl)cc1,29%,-16%,2%,-4%,-1%,-4.2%,-49%,-1%
Cc1ccc(NC(=O)C(=O)NCCCN2CCCC2=O)cc1,-27%,3%,?,·,-16%,·,·,29%
COC(=O)c1ccccc1S(=O)(=O)Nc1ccc(OC)nc1,0%,-2%,9%,-1%,57%[activator],-1.1%,-10%,-1%
Cc1ccc(-c2nnc(Nc3ccc(Br)cc3)c3ccccc23)cc1S(=O)(=O)NCC1CCCO1 (centres undefined),?,·,-25%[46.1 µM],?,59%[activator],-5.8%,·,·
Cc1ccc(NC(=S)N2CCC(NC(=O)c3ccc(F)cc3)CC2)cc1C,-1%[46.1 µM],2%,?,·,-5%,·,9%,0%
Cc1cc(C)nc(Nc2cc([N+](=O)[O-])ccc2C)n1,0%[46.1 µM],-1%,-1%,·,-4%,·,-5%,-11%
NNC(=O)C1c2ccccc2Oc2ccccc21,·,0%,·,·,-13%,·,9%,6%
Cc1ccc(S(=O)(=O)N2CCC(C(=O)N3CCN(Cc4ccccc4)CC3)CC2)cc1,1%,9%,1%,5%,0%,-0.2%,-16%,5%
CCC(C)(C)NC(=O)C(c1ccc(OC)cc1)N(C(=O)CCC(=O)Nc1cc(C)on1)c1ccc(OC)cc1OC (centres undefined),?,1%,?,·,-20%,·,17%,-4%
O=C(Cn1cnc2ccccc2c1=O)NCCC(=O)Nc1ccc(F)cc1,-27%&26%[46.1 µM],3%,-2%&1%[46.1 µM],·,12%&-11%,·,1%,-17%
Cc1cc(C)cc(NC2=NC3(CCCCC3)N=C(N)N2)c1,-37%[46.1 µM],-2%,-17%,-5%,-19%,-1.7%,?,16%
NC(=O)c1cccc(NC(=O)Nc2ccc(Cl)cc2)c1,-4%,·,11%,·,3%,·,11%,-15%
COc1ccc(NC(=O)CC#N)cc1OC,22%[46.1 µM],2%,?,-7%,5%,4.2%,1%,19%

# Additional records.
SMILES,Marburg entry inh,SARS PLpro yeast,Lassa entry inh,Cruzain inh noDet,StopGo reporter,Cruzain inh Det,NS1 function inh,RE007 growth inh
COc1ccccc1N1CCN(/N=C\C(Br)=C\c2ccccc2)CC1,?,-3%,27%[46.1 µM],·,-1%,·,-2%,?
CCN(CC(=O)Nc1cccc(C(C)=O)c1)S(=O)(=O)c1ccc(C)cc1,?,-1%,0%,·,9%,·,-10%,13%
COc1ccccc1NC(=O)CCn1cccc1,0%,-1%,-2%,9%,2%,2.0%,-1%,1%
COc1ccc(-c2cc3nc(C)cc(N)n3n2)cc1,?,-37%,?,-6%,-53%,1.9%,-32%,16µM*
COCCn1c(=N)c(C(=O)NC(C)c2ccccc2)cc2c(=O)n3cc(C)ccc3nc21 (centres undefined),-11%[46.1 µM],·,29%[46.1 µM],8%,-6%,0.7%,·,·
Nc1cc(N)nc(SCC(=O)NNC(=O)Cc2ccccc2)n1,-18%[46.1 µM],4%,5%,·,-6%,·,4%,-1%
CN(C(=O)CSc1nnc(COc2ccccc2)o1)c1ccccc1,?,·,-21%[46.1 µM],-15%,4%,5.4%,·,·
O=C(COc1ccccc1F)NC12CC3CC(CC(C3)C1)C2,·,-2%,·,·,0%,·,-78%,10%
COc1ccccc1NC(=O)CCCNC(=O)Cn1cnc2sc(C)c(C)c2c1=O,0%[46.1 µM],4%,4%,·,-5%,·,-6%,4%
O=C(CSc1nc2ccccc2nc1Cc1ccc(Cl)cc1)NCCc1ccccc1,·,·,3%[46.1 µM],-15%,-2%,1.8%,·,·
COCCNS(=O)(=O)c1cc(OC)c(Cl)cc1Cl,7%,1%,·,1%,·,4.4%,1%,·
O=C1CSC(c2ccc([N+](=O)[O-])cc2)N1Cc1ccccc1 (centres undefined),·,2%,·,·,-8%,·,-2%,12%
OC(CNCc1ccccc1)(c1ccccc1)c1ccccc1,·,-1%,·,·,-22%,·,-1%,1%
COc1ccccc1NS(=O)(=O)c1cccc(C(=O)OCc2nc3ccccc3s2)c1,27%,-15%,?,-11%,9%,-2.0%,6%,1%
Cc1[nH]c2ccccc2c1C(=O)CN1CCSCC1,4%,10%,9%,1%,-22%,0.6%,-7%,-13%
